Six1-Eya2 blk: blocks human Six1 binding to Eya2; AlphaScreen GST-Six1/His-Eya2 binding, biochemical; hits give low values; control for the full effect not named in the record; activity change, % (concentration not given with the values); hit rate 0.56% among 360,000; AID 651725; in the data active = activity change below about -65%; inconclusive = about -30% to -65%; inactive = above about -30%; note: % is set by controls: 0 for no effect and ±100 for the full control effect
Target sequence (O00167 whole entry, looked up): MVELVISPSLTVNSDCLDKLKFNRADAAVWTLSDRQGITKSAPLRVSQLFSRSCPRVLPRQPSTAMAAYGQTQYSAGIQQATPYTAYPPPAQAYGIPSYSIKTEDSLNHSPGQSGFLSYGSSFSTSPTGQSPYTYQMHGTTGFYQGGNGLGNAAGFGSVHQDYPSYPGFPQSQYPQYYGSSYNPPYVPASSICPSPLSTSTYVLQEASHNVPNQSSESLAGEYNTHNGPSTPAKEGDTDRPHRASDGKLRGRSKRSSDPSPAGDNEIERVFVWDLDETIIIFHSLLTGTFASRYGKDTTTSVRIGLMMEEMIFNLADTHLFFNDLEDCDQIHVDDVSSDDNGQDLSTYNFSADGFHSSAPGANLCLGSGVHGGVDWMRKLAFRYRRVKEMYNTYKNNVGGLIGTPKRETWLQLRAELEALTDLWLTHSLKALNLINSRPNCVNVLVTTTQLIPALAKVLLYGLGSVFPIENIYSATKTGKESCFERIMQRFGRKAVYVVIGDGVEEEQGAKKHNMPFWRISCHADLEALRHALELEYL
Target sequence (Q15475 whole entry, looked up): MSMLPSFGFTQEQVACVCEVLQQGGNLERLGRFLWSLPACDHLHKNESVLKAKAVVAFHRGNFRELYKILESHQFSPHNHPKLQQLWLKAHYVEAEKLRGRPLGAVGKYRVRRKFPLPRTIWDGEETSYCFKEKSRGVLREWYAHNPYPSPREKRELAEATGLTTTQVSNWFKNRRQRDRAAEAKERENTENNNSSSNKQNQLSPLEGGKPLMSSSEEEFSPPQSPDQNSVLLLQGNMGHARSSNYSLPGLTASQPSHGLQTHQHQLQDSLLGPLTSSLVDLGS
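Compounds are tested against tagged Six1 and Eya2 proteins bridged by glutathione donor and nickel acceptor beads; after a one-hour incubation at 37 °C without light, AlphaScreen emission is recorded.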
CtBP-E1A inh: CtBP/E1A binding inhibition; AlphaScreen GST-E1A/His-CtBP binding, 1536-well; hits give low values; control for the full effect not named in the record; activity change, % (concentration not given with the values); hit rate 0.49% among 340,000; AID 651724; in the data active means activity change below about -65%; inconclusive means about -30% to -65%; inactive means above about -30%; note: % is set by controls: 0 for no effect and ±100 for the full control effect
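Homogeneous bead-based format: GST-tagged E1A captured on glutathione donor beads, His-tagged CtBP on nickel acceptor beads; compounds precede bead addition by 2 h at 37 °C.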
TRPML1 inh: blocks the human TRPML1 channel | TRPML1-inducible cells, Ca2+ dye fluorescence, FDSS; hits give low values; inhibition of EC80 agonist-evoked calcium signal | activity change, negative = inhibition, % (test concentration not listed) | hit rate 0.02% among 390,000 | Q9GZU1 | AID 624415; in the data active means activity change below about -50%; inconclusive means about -30% to -50%; inactive means above about -30%;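 note: stimulus is agonist 54-4 at its EC80 concentration; % is set by controls: 0 for no effect and ±100 for the full control effect; compound concentration not given in the record; the text of the record puts the active cut at -80%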
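Tet-induced TRPML1-DL cells loaded with Ca8 no-wash calcium dye were read kinetically on FDSS. Compound addition was followed by EC80 agonist 54-4 (4 uM final); inhibition was read over 110 s.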
TRPML1 agonist: human mucolipin-1 channel agonism. Q9GZU1. TRPML1-expressing cells, Ca2+ dye fluorescence, FDSS; host cell line not named in the record; reference of the full effect not given here. activation, % (concentration not given with the values). hit rate 0.12% among 410,000. AID 624414; in the data active = activation above about 50%; inconclusive = about 30% to 50%; inactive = below about 30%; note: 0% is about no effect; the text of the record puts the active cut at 80%
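Agonist activity was taken from a 110 s kinetic Ca2+ dye read on the FDSS after pinning compounds onto TRPML1-DL cells. The cells were seeded at 1,500/well with Tet inducer, incubated about 16 h, then dye-loaded at room temperature.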
TRPV1 potentiator: potentiators of human vanilloid receptor 1 (TRPV1); TRPV1-expressing cells, Fluo-8 calcium influx, capsaicin EC20 potentiation; host cell line not named in the record; control for the full effect not named in the record; hit rate 0.02% among 320,000; potentiation, % at 8.33 µM; Q8NER1; active means potentiation above 80%; inconclusive means 30% to 80%; inactive means below 30%; note: 0% is about no effect
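TRPV1-expressing cells were cultured overnight at 35.5C and loaded with Fluo-8 calcium dye for 40 to 90 min at room temperature. After a 10 s baseline, compound was added and calcium influx was read kinetically for 3 min (ex 480/em 520 nm).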
D2 potentiator: potentiates the human D2 dopamine receptor allosterically. AID 624464. potentiation, % (no concentration beside the values). hit rate 0.23% among 360,000. DiscoveRx D2 beta-arrestin cells, luminescence, 90 min; 100% = 57 uM dopamine signal. P14416; active = potentiation of 50% or more; inconclusive = 30% to 50%; inactive = 30% or less;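 note: compound concentration not given in the record; tested on top of an EC20 dose of dopamine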
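PathHunter D2 cells, attached overnight at 37 deg C, received compound in DMSO plus dopamine at EC20 (50 nM final) for 90 min at 37 deg C. Beta-arrestin recruitment was read as luminescence after 1 h with detection reagent at ambient temperature.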
Active calls of the source: *; u = inconclusive; x = no result given; & = joins results of further samples. Compounds as they come, and some 0.95% of all compounds hit somewhere here.

SMILES	Six1-Eya2 blk	CtBP-E1A inh	TRPML1 inh	TRPML1 agonist	TRPV1 potentiator	D2 potentiator
COCCC(=O)N1CCC(Oc2ccc(C(=O)NC(C)CCn3cccn3)cc2)CC1 (centres undefined)	2	14	9	0.5	2	-20
Cc1ccccc1OCc1nc(-c2ccc(Br)o2)no1	14	34	1	-0.3	-1	-3
O=C(CCS(=O)(=O)c1cccc2nonc12)N1CCN(c2ccc(F)cc2)CC1	-1	-9	-4	-0.7	-3	-1
COC(=O)c1c(NC(=S)NC(=O)c2ccco2)sc2c1CCCC2	6	-24	-1	-0.5	3	0
COc1ccc(CCN2CC(C(=O)N(C)CCn3nc(C)cc3C)CCC2=O)cc1 (centres undefined)	1	3	13	-0.2	19	2
COC(=O)CCc1nc2c(C#N)c(-c3ccc(Cl)cc3)ccn2n1	-20	4	2	0.2	3	-5
Cc1ccc(-c2noc(C3CCN(C(=O)Nc4ccc(C#N)cc4)CC3)n2)o1	-5	-3	-13	0.8	-14	2
COc1ccc([N+](=O)[O-])cc1N(CC(=O)NCCSc1ccc(C)cc1)S(C)(=O)=O	-10	-3	2	-0.6	3	-6
COC(=O)c1ccc(C2/C(=C(/O)c3ccc(OC(C)C)cc3)C(=O)C(=O)N2c2cc(C)on2)cc1 (centres undefined)	-2	0	-3	-1.1	0	2
O=C1CCC(N2C(=O)c3ccccc3C2=O)C(=O)N1 (centres undefined)	-1	1	-8	0.3	1	3
N#C/C(=C\c1ccco1)C(=O)Nc1cccc2ncccc12	6	-5	10	2.1	-11	-4
NC(=O)c1c(NC(=O)c2cccc(N3C(=O)CCC3=O)c2)sc2c1CCCCC2	-5	5	16	-0.3	4	-2
Cc1ccc(C(C)NC(=O)c2cc3ccccc3oc2=O)cc1C (centres undefined)	1	-7	6	2.5	2	-1
CC1CC(C)CN(C(=O)COC(=O)c2ccc([N+](=O)[O-])o2)C1 (centres undefined)	0	x	-10	-0.5	21	12
CCOc1cc(/C=C2\SC(=S)N(C(C(=O)O)c3ccccc3)C2=O)ccc1O (centres undefined)	-27	u	x	x	u	-20
CCC(C)NC(=O)C1CCN(S(=O)(=O)N2CCC3(CC2)OCCO3)CC1 (centres undefined)	-2	x	6	0.2	27	-9
O=C(N/N=C/C(Br)=C/c1ccccc1)c1cc(-c2ccco2)[nH]n1	-1	-13	16	-0.9	8	-1
Cc1ccccc1CSCC(=O)Nc1ccccc1F	4	5	-12	0.1	-3	-4
O=C(c1cc(-c2ccncc2)nc2ccc(Cl)cc12)N1CCN(Cc2ccc3c(c2)OCO3)CC1	1	-6	20	2.7	5	10
COc1ccc(C(=O)Nc2cc3c4c(c2)CC(=O)N4CCC3)c(OC)c1	-5	-7	1	-0.2	-5	-1
O=C(c1ccc2c(=O)n3c(nc2c1)CCCCC3)N1CCN(Cc2ccccc2)CC1	-5	7	21	1.5	-5	-7
CCCS(=O)(=O)NC(=O)C1(C)CCN(C(=O)c2c(F)ccc(C)c2F)C1 (centres undefined)	9	-21	-5	-0.8	x	-12
O=C(c1ccc(Cl)cc1)N1CCC2CC1c1cc(-c3ccccc3)ccc12 (centres undefined)	4	16	47	2.4	x	0
CCc1nnc(NC(=O)c2c(OC)cccc2OC)s1	5	10	-12	1.3	0	-13
CCOC(=O)c1ccc(NC(=S)N(Cc2cccnc2)Cc2ccco2)cc1	2	-13	0	2.9	27	0
Cc1cc(C)c(NC2=CC(=O)CC(C)(C)C2)c(C#N)c1	30	48	9	3.7	0	-3
O=C(Cn1c(-c2ccccn2)nc2ccccc21)N/N=C/c1cccnc1	6	20	4	0.0	-16	4
O=C(Nc1ccc2c(c1)OCO2)C1CCN(C(=O)c2ccc([N+](=O)[O-])cc2)CC1	11	x	17	0.0	-2	-4
CCN(c1ccccc1)S(=O)(=O)c1ccc(OC)c(OC)c1	3	8	-10	0.1	-2	-11
CCCCC(=O)NCc1ccc2c(c1)cc(C)n2C	3	0	9	-0.6	-19	-11
O=C(/C=C/Nc1ccc(S(=O)(=O)Nc2ncccn2)cc1)c1ccc2ccccc2c1	-4	-8	24	0.6	-6	-1
COCc1cc(C)nc2sc(C(=O)Nc3nccs3)c(N)c12	u	-4	2	-0.6	x	-5
CCOC(=O)c1ccccc1NC(=S)N1CCN(C(=O)c2ccco2)CC1	3	-5	0	0.0	-5	5
O=C(c1ccco1)N1CCN(Cc2cc(=O)c(OCc3ccccc3F)co2)CC1	-2	8	-5	0.9	0	10
Cc1ccc(NC(=O)c2ccccc2-c2cc(C)no2)cc1	-3	12	-14	1.4	-9	-3
COc1ccccc1N(CC(=O)NC(C)(C)C)C(=O)c1ccc(Cl)nc1	0	-3	-20	0.2	-6	-4
O=C(COC(=O)c1cnccn1)NCc1ccccc1	1	-1	5	2.9	8	3
COc1ccc(Cn2c(-c3ccc(OC)c(O)c3)nc3ccccc32)cc1O	-4	-11	34	0.9	-6	5
COc1ccccc1S(=O)(=O)Cc1ccc(C(=O)NCC(OC)OC)o1	1	x	19	-0.5	1	-2
Cc1cc(C)c(C(N)=O)c(SCC(=O)c2cc(C)c(C)cc2C)n1	0	6	-15	1.0	1	-8

A different layout for part of the listing above:
compound: COCc1cc(C)nc2sc(C(=O)Nc3nccs3)c(N)c12
- Six1-Eya2 blk: u
- CtBP-E1A inh: -4
- TRPML1 inh: 2
- TRPML1 agonist: -0.6
- TRPV1 potentiator: x
- D2 potentiator: -5

compound: CCOC(=O)c1ccccc1NC(=S)N1CCN(C(=O)c2ccco2)CC1
- Six1-Eya2 blk: 3
- CtBP-E1A inh: -5
- TRPML1 inh: 0
- TRPML1 agonist: 0.0
- TRPV1 potentiator: -5
- D2 potentiator: 5

Additional entries
SMILES	Six1-Eya2 blk	CtBP-E1A inh	TRPML1 inh	TRPML1 agonist	TRPV1 potentiator	D2 potentiator
Cc1ccc(S(=O)(=O)NNC(=S)Nc2c(Cl)cccc2Cl)cc1	0	1	0	-0.2	-3	-16
Cc1cc(-c2cccs2)c(C#N)c(=S)[nH]1	-29	u	8	2.0	10	-16
COc1cccc(/C=N/Nc2ccnc(=O)[nH]2)c1O	-76*	-92*	20	1.9	3	-2
Nc1ccccc1OCCOCCOc1ccccc1N	-10	u	7	0.2	-7	9
Clc1cccc(C2CCN(Cc3nc(COc4ccccc4)no3)C2)c1 (centres undefined)	-6	7	-6	2.8	-4	-19
CC(=O)NCCNC(=O)Cn1nnc(-c2ccccc2)c1COc1ccc2ccccc2c1	2	-5	x	-0.4	x	-4
CC(=O)c1cc(CN2CCC(n3nccc3NC(=O)c3ccccc3C)CC2)cs1	0	-5	-4	-0.5	8	-19
O=C(C(=O)N1CCN(c2ccccc2F)CC1)c1cn(CC(=O)N2CCOCC2)c2ccccc12	1	3	-6	-0.4	-3	-3
Cc1cccc(N2CCN(CC(=O)Nc3ccc(S(=O)(=O)N4CCOCC4)cc3)CC2)c1C	-15	0	-1	-0.4	-9	-35
CCn1cc(C(=O)NCCc2ccc(OC)c(OC)c2)c(=O)c2cc(S(=O)(=O)N3CCOCC3)ccc21	6	0	-8&2	-0.2&-0.3	-6	5
COc1cc(C2C(C(=O)c3cccs3)=C(O)C(=O)N2Cc2ccco2)cc(OC)c1OC (centres undefined)	10	-18	6	1.1	16	-4
O=C(CCC(=O)OCC(=O)c1ccc([N+](=O)[O-])cc1)NC1CCCCC1	-5	-2	12	-0.3	2	9
O=C(Cc1ccc2c(c1)OCCO2)N/N=C/c1ccco1	43	x	-5	-0.2	7	-4
CC1CC(C)CN(C(=O)COC(=O)Cc2ccc(Br)cc2)C1 (centres undefined)	12	7	8	1.4	-27	0
O=C(NCc1cccnc1)c1ccc(-c2cccc(Cl)c2Cl)o1	0	-9	-3	0.7	8	-29
COCC(=O)N(C)C1(c2nnnn2CCOC(=O)Nc2ccc(Cl)cc2)CCCC1	3	20	-5	0.2	7	-5
CCN(C[C@H]1N[C@@](Cc2ccccc2)(C(=O)OC)[C@H]2C(=O)N(C)C(=O)[C@@H]12)S(=O)(=O)c1ccc(OC(F)(F)F)cc1	1	-2	24	0.2	x	u
O=C(Nc1c(C(=O)C2CC2)oc2ccccc12)c1ccc(Cl)cc1	24	0	-10	0.2	-7	-14
COc1ccc(N2CCN(C(=O)c3ccc(CS(=O)(=O)c4ccccc4C)o3)CC2)cc1	1	-6	-5	-0.8	-5	-2
COc1ccc(-c2cc(CNS(=O)(=O)c3ccccc3)on2)cc1	-6	-3	-1	0.7	-18	-1
CCO/N=C/c1ccc(OC)c(Oc2nc(OC)cc(OC)n2)c1	6	22	-17	1.8	-13	-7
COc1ccc(CNC(=O)CN=C2NC(=O)C(c3ccccc3)(c3ccccc3)N2)cc1	2	2	8	2.3	9	-9
Cn1c(N)c(C(=O)COC(=O)C2(c3ccc(Cl)cc3)CCCC2)c(=O)n(C)c1=O	-2	3	6	0.4	-7	-25
CCOc1cc(C=O)cc(Br)c1OCC(N)=O	-4	x	13	0.0	-8	-4
COc1ccc(/C=C2\SC(=S)N(CCCC(=O)NC3CCCC3)C2=O)cc1OC	3	0	-6	-0.4	x	-7
c1ccc(-n2cc(CN3CCC(N4CCOCC4)CC3)c(-c3ccc4c(c3)OCO4)n2)cc1	-10	-14	-1	-0.3	9	-14
COc1ccc(-c2[nH]ncc2CNCCn2cccn2)c(F)c1	0	x	-4	0.4	-2	-15
CCC1([N+](=O)[O-])COC(c2ccc(Cl)cc2)OC1 (centres undefined)	9	17	0	-0.9	x	-12
c1cncc(CNC2CCCc3ccccc32)c1 (centres undefined)	4	-1	-6	-0.1	-2	-8
COc1cccc(S(=O)(=O)N2CCOCC2)c1	-1	12	17	0.0	0	-4

Given as labelled records: entries from further up
Cc1cc(-c2cccs2)c(C#N)c(=S)[nH]1
- Six1-Eya2 blk: -29
- CtBP-E1A inh: u
- TRPML1 inh: 8
- TRPML1 agonist: 2.0
- TRPV1 potentiator: 10
- D2 potentiator: -16
COc1cccc(/C=N/Nc2ccnc(=O)[nH]2)c1O
- Six1-Eya2 blk: -76*
- CtBP-E1A inh: -92*
- TRPML1 inh: 20
- TRPML1 agonist: 1.9
- TRPV1 potentiator: 3
- D2 potentiator: -2
Nc1ccccc1OCCOCCOc1ccccc1N
- Six1-Eya2 blk: -10
- CtBP-E1A inh: u
- TRPML1 inh: 7
- TRPML1 agonist: 0.2
- TRPV1 potentiator: -7
- D2 potentiator: 9
Clc1cccc(C2CCN(Cc3nc(COc4ccccc4)no3)C2)c1 (centres undefined)
- Six1-Eya2 blk: -6
- CtBP-E1A inh: 7
- TRPML1 inh: -6
- TRPML1 agonist: 2.8
- TRPV1 potentiator: -4
- D2 potentiator: -19

Further entries
SMILES	Six1-Eya2 blk	CtBP-E1A inh	TRPML1 inh	TRPML1 agonist	TRPV1 potentiator	D2 potentiator
CC(C)(C#CCN1CCCC1)OCCC#N	-8	1	10	-0.7	-8	2
Cc1ccnc(NC(=O)c2ccc(S(=O)(=O)NCc3ccco3)cc2)c1	-3	-1	-1	1.8	6	-1
COc1cccc(S(=O)(=O)Nc2ccc(C(=O)NCc3ccco3)cc2)c1	-1	5	1	0.9	17	-5
Cc1nc2nc(CNC(=O)OC(C)(C)C)nn2c(C)c1CCC(=O)Nc1ccc2c(c1)OCO2	-12	-23	11	0.4	-10	-10
N#CC(C(=O)NC1CC1)c1nc2ccccc2nc1N1CCN(C/C=C/c2ccccc2)CC1 (centres undefined)	-17	-13	27	-0.1	-9	-5
COc1cc(C(=O)Nc2cccc(S(=O)(=O)N3CCCC3)c2)cc(OC)c1C	-17	x	-6	2.4	10	-24
